Bioassay records (PubChem BioAssay)
MITF inh – inhibitors of MITF. TRPM1 promoter luciferase, luminescence, 24 h. 37,000 tested, 0.28% active. inhibition, % (concentration not given with the values);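 active = most replicates at 85% or more, or half of them and the mean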;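 also: human melanocyte line stably carrying TRPM1 promoter luciferase reporter; 0% = vehicle wells and 100% = a positive control; the first replicate is given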
YB-1 expr inh – YB-1 expression inhibition; U2OS, qRT-PCR YB-1 vs CDIP delta delta Cp, 16 h; stronger effect = higher value; zero = DMSO, each unit about twofold; delta delta Cp (YB-1 minus CDIP) (test concentration not listed); 30,000 tested, 0.37% active; AID 434959;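 active = delta delta Cp rounded down to an integer at or above 3, about 3 SD of DMSO wells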;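 also: higher means less YB-1 transcript or more CDIP transcript relative to DMSO; stock transfer was 100 nL into about 100 µL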
PD-1 reverse act – activators reversing PD-1 mediated T-cell inhibition; primary human CD4 T cells, PD-L1 beads, CellTiter-Glo 96 h; activation, % (concentration not given with the values); 29,000 tested, under 10 active;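 active = replicate mean of 50% or more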;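 also: 0% = median vehicle wells and 100% = positive control; 100 nL library stock added to about 50 µL; numbers are from one replicate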
Hedgehog inh – Sonic Hedgehog pathway inhibition. Shh-LIGHT2 Gli-luciferase reporter, 30 h. inhibition, % (test concentration not listed). 22,000 tested, 2.1% active. AID 2313;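 active = replicate mean of 65% or more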;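 also: pathway switched on by Shh-conditioned medium diluted 1 in 25 in low serum; 100 nL library stock added to about 40 µL; 0% = median of neutral wells and 100% = positive control level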
* marks the source's active call; other numbers are inactive results; nt = no result given. Only part of the results is shown (hit frequency here may not be typical).

A first look, 3 compounds:
canonical_smiles,MITF inh,YB-1 expr inh,PD-1 reverse act,Hedgehog inh
C[C@@H]1CCCCO[C@@H](CN(C)CC2CCCCC2)[C@@H](C)CN([C@H](C)CO)C(=O)c2cc(NC(=O)Nc3ccccc3)ccc2O1,18.8,-0.0368,0.2,19.6
Cc1cc(C(=O)Nc2cccc3c2O[C@H](CN(C)Cc2ccc(C(=O)Nc4ccccc4N)cc2)[C@@H](C)CN([C@@H](C)CO)C3=O)n(C)n1,11.4,-0.575,1.3,nt
Cc1ccc(S(=O)(=O)Nc2cccc3c2O[C@H](CN(C)S(=O)(=O)c2ccccc2)[C@@H](C)CN([C@H](C)CO)C3=O)cc1,-7.9,0.0841,1.4,-9.8

All compounds of this part (from the top)
canonical_smiles,MITF inh,YB-1 expr inh,PD-1 reverse act,Hedgehog inh
C[C@@H]1CCCCO[C@@H](CN(C)CC2CCCCC2)[C@@H](C)CN([C@H](C)CO)C(=O)c2cc(NC(=O)Nc3ccccc3)ccc2O1,18.8,-0.0368,0.2,19.6
Cc1cc(C(=O)Nc2cccc3c2O[C@H](CN(C)Cc2ccc(C(=O)Nc4ccccc4N)cc2)[C@@H](C)CN([C@@H](C)CO)C3=O)n(C)n1,11.4,-0.575,1.3,nt
Cc1ccc(S(=O)(=O)Nc2cccc3c2O[C@H](CN(C)S(=O)(=O)c2ccccc2)[C@@H](C)CN([C@H](C)CO)C3=O)cc1,-7.9,0.0841,1.4,-9.8
CNCCCC1c2ccccc2C=Cc2ccccc21,-6.5,0.243,0.4,-10.4
CC(C)NC(=O)Nc1ccc2c(c1)C(=O)N([C@@H](C)CO)C[C@H](C)[C@@H](CN(C)S(C)(=O)=O)O2,-0.8,-0.306,2.4,1.5
COC1OC(O)C(O)C12CC[C@@]1(O2)[C@H](C)C[C@H]2OC(=O)[C@@]3(C)CCC[C@]1(C)C23 (some centres undefined),-11.7,1.28,0.4,-19.4
C=C1CC[C@H](O)CC1=C/C=C1\CCC[C@]2(C)[C@@H]([C@H](C)CC[C@@H](O)C(C)(C)O)CC[C@@H]12,-55.1,0.496,nt,12.5
Cc1ccc2ccc(C(Nc3ccccn3)c3ccc(Cl)cc3)c(O)c2n1 (centres undefined),64.6,nt,-10.5,nt
C[C@@H]1CN([C@H](C)CO)C(=O)Cc2cc(NC(=O)C3CC3)ccc2O[C@@H]1CN(C)Cc1ccncc1,-16.2,0.096,0.0,-11.8
CC(C)NC(=O)Nc1cccc2c1O[C@@H](CN(C)S(C)(=O)=O)[C@@H](C)CN([C@@H](C)CO)C2=O,2.8,0.317,2.9,-15.2
COc1ccc(CN(C)C[C@H]2Oc3c(NC(=O)Nc4ccc(C(F)(F)F)cc4)cccc3C(=O)N([C@H](C)CO)C[C@H]2C)cc1,-6.2,1.28,-5.4,12.9
Cc1ccc(S(=O)(=O)N2CCOCC2)c(C)c1,5.7,-0.683,0.1,-24.5
COc1ccc(CN(C)C[C@H]2Oc3c(NS(=O)(=O)c4cccs4)cccc3C(=O)N([C@@H](C)CO)C[C@@H]2C)cc1,-13.5,-0.458,-0.8,-9.8
Cc1cc(C(=O)Nc2cccc3c2O[C@H](CN(C)Cc2ccccc2)[C@@H](C)CN([C@@H](C)CO)C3=O)n(C)n1,-7.5,-0.819,-0.8,11.8
CC(N=Cc1ccccc1O)c1ccccc1 (centres undefined),7.9,-0.0708,-0.9,-10.1
CC(C)NC(=O)Nc1ccc2c(c1)CC(=O)N([C@H](C)CO)C[C@@H](C)[C@@H](CN(C)C(=O)Nc1ccc3c(c1)OCO3)O2,6.2,-0.268,0.5,-75.8
COc1cc(OC)cc(OC)c1,12.0,-0.0401,nt,61.3
Cc1cc(C(=O)O)nn1-c1ccccc1,10.9,0.0902,0.7,-18.6
COc1ccc(CN(C)C[C@@H]2Oc3ccc(NC(=O)Cc4ccccc4)cc3C(=O)N([C@H](C)CO)C[C@H]2C)cc1,-2.2,0.437,1.4,-3.1
O=C(CSc1ncnc2scc(-c3ccc(Br)cc3)c12)Nc1ccccc1,-5.0,nt,0.6,nt
Cc1cccc(Cn2nc(C(C)(C)C)cc2C(=O)Nc2cccnc2)c1,-3.4,-0.0557,1.5,-15.8
Cc1ccc2c(c1)c(-c1ccccc1)c(-c1ccccc1)n2CC(O)CN1CCN(CCO)CC1 (centres undefined),-10.3,nt,-7.8,nt
C[C@@H]1CN([C@H](C)CO)C(=O)c2cc(NC(=O)Nc3ccc(C(F)(F)F)cc3)ccc2O[C@H]1CN(C)Cc1ccc(Cl)c(Cl)c1,0.6,-0.109,-9.8,nt
COc1ccc(S(=O)(=O)N(C)C[C@@H]2Oc3ccc(NC(=O)Nc4cccc5ccccc45)cc3CC(=O)N([C@@H](C)CO)C[C@@H]2C)cc1,28.9,-0.0999,nt,-33.9

As a working copy, some entries already given:
canonical_smiles,MITF inh,YB-1 expr inh,PD-1 reverse act,Hedgehog inh
C[C@@H]1CN([C@H](C)CO)C(=O)c2cc(NC(=O)Nc3ccc(C(F)(F)F)cc3)ccc2O[C@H]1CN(C)Cc1ccc(Cl)c(Cl)c1,0.6,-0.109,-9.8,nt
COc1ccc(S(=O)(=O)N(C)C[C@@H]2Oc3ccc(NC(=O)Nc4cccc5ccccc45)cc3CC(=O)N([C@@H](C)CO)C[C@@H]2C)cc1,28.9,-0.0999,nt,-33.9

Next compounds:
canonical_smiles,MITF inh,YB-1 expr inh,PD-1 reverse act,Hedgehog inh
CC(=O)c1cccc(N(CC(=O)Nc2cc(C)cc(C)c2)S(C)(=O)=O)c1,12.0,nt,0.3,nt
COc1ccccc1OCC(=O)Nc1ccccc1C(=O)Nc1cccc(C(=O)O)c1,-12.1,nt,5.1,nt
CC(C)NC(=O)N(C)C[C@@H]1Oc2c(NC(=O)c3ccc(-c4nccs4)cc3)cccc2C(=O)N([C@@H](C)CO)C[C@H]1C,0.7,-0.106,nt,12.0
C[C@H]1CN([C@@H](C)CO)C(=O)Cc2cc(NC(=O)Cc3ccccc3)ccc2O[C@H]1CN(C)C(=O)NC1CCCCC1,-0.9,-0.311,-2.1,-1.2
Cc1noc(C)c1NC(=O)Nc1ccc2c(c1)C(=O)N([C@@H](C)CO)C[C@H](C)[C@H](CN(C)C(=O)NC(C)C)O2,-3.0,-0.149,6.7,nt
C[C@@H]1CN([C@@H](C)CO)C(=O)c2cc(N(C)C)ccc2O[C@@H]1CN(C)C(=O)Nc1cccc2ccccc12,2.1,-0.105,-0.1,-22.7
COc1ccc(S(=O)(=O)N(C)C[C@H]2Oc3ccc(NS(=O)(=O)c4ccc(C)cc4)cc3C(=O)N([C@@H](C)CO)C[C@H]2C)cc1,-9.7,0.0423,1.4,10.6
COc1ccc(NC(=O)Nc2ccc3c(c2)C(=O)N([C@H](C)CO)C[C@H](C)[C@@H](CN(C)C(=O)Nc2cccc4ccccc24)OCCCC[C@@H](C)O3)cc1,5.7,-0.892,nt,nt
Cc1c(C(N)=O)nnc2cc(-c3ccccc3)nn12,-40.4,-0.388,2.2,nt
Cc1sc(NC(=O)c2ccco2)c(C(=O)NCc2cccnc2)c1C,12.8,nt,-0.9,nt
CC1CCN(C(=O)c2cc3nc(-c4ccco4)cc(C(F)(F)F)n3n2)C(C)C1 (centres undefined),41.9,-0.0507,-1.4,20.3
CNC[C@H]1Oc2c(NC(=O)C3CCOCC3)cccc2C(=O)N([C@@H](C)CO)C[C@@H]1C,-7.7,-0.0387,1.0,-29.3
C[C@@H]1CCCCO[C@H](CN(C)C(=O)Nc2ccccc2)[C@@H](C)CN([C@H](C)CO)C(=O)c2cc(NS(=O)(=O)c3ccc(F)cc3)ccc2O1,-5.6,0.395,-2.8,-5.9
COc1ccc(NC(=O)N(C)C[C@H]2Oc3ccc(NC(=O)CCCN(C)C)cc3C(=O)N([C@H](C)CO)C[C@H]2C)cc1,-3.7,-0.391,1.0,0.5
OC[C@H]1O[C@@H](OCc2ccccc2)[C@H](O)[C@@H](O)[C@@H]1O,11.3,-0.35,2.9,-30.6
Cc1noc(C)c1NC(=O)Nc1cccc2c1O[C@H](CN(C)C)[C@H](C)CN([C@H](C)CO)C2=O,-20.5,0.959,3.5,7.8
COc1ccc(C2CC(=O)c3c(O)cc(O[C@@H]4O[C@H](CO)[C@@H](OC5OCC(O)(CO)C5O)[C@H](O)[C@H]4O)cc3O2)cc1 (some centres undefined),6.3,-0.166,-1.2,-17.3
COc1ccc2c(c1)c(/C=C/c1nc3ccc(I)cc3c(=O)n1CCCO)c(C)n2C,-4.1,nt,0.4,nt
Cc1ccccc1NC(=O)CCc1nc(-c2ccccc2F)no1,-16.3,nt,0.1,nt
C[C@H]1CN([C@@H](C)CO)C(=O)Cc2cc(NS(=O)(=O)c3cccs3)ccc2O[C@@H]1CN(C)S(=O)(=O)c1cccs1,-7.5,0.513,1.4,-23.9
C[C@@H]1CN([C@H](C)CO)C(=O)Cc2cc(NC(=O)Nc3ccc(F)cc3)ccc2O[C@H]1CN(C)Cc1ccc2c(c1)OCO2,-7.1,0.0701,1.3,10.2
C[C@H]1CN([C@@H](C)CO)C(=O)c2cccc(NS(=O)(=O)c3ccccc3)c2O[C@@H]1CN(C)C(=O)Nc1cccc2ccccc12,4.8,0.309,0.8,-1.1
C[C@@H]1CN([C@@H](C)CO)C(=O)Cc2cc(NC(=O)C3CCCCC3)ccc2O[C@@H]1CN(C)Cc1ccc(-c2ccccc2)cc1,39.4,-0.443,-3.3,35.9
Cc1nn(CC(=O)NCc2ccccn2)c(C)c1[N+](=O)[O-],-12.3,nt,0.1,nt
C[C@H]1CN([C@@H](C)CO)C(=O)Cc2cc(NS(C)(=O)=O)ccc2O[C@H]1CN(C)S(=O)(=O)c1ccccc1,-8.9,-0.272,1.0,-3.8
CC1(C)CC[C@]2(C(=O)O)CC[C@]3(C)C(=CCC4[C@@]5(C)C[C@@H](O)[C@H](O)[C@](C)(CO)C5CC[C@]43C)[C@@H]2[C@@H]1O (some centres undefined),-14.3,-0.0932,1.7,-14.7
CC(=C/C(=O)O)/C=C/c1ccccc1,-0.4,0.203,-0.4,nt
O=C(O)CSc1nnc(-c2sc3ccccc3c2Cl)n1-c1ccccc1,-2.6,nt,0.6,nt
CC(=O)N1CN(CCCn2ccnc2)Cc2c1sc1c2CCCC1,-13.9,-0.256,1.7,nt
CC(C)NC(=O)Nc1cccc2c1O[C@@H](CN(C)Cc1ccc(C(=O)O)cc1)[C@@H](C)CN([C@H](C)CO)C2=O,4.6,0.257,2.2,36.9
C[C@H](CO)N1C[C@H](C)[C@@H](CN(C)S(C)(=O)=O)Oc2ccc(NC(=O)CCCCCC(=O)Nc3ccccc3N)cc2C1=O,-9.3,0.159,2.5,nt
C[C@H](CO)N1C[C@H](C)[C@H](CN(C)Cc2ccc(Oc3ccccc3)cc2)Oc2ccc(NC(=O)CCCN(C)C)cc2C1=O,-15.6,-0.128,-0.2,13.5
Cc1ccc(S(=O)(=O)Nc2cccc3c2O[C@H](CN(C)Cc2ccc(C(F)(F)F)cc2)[C@@H](C)CN([C@@H](C)CO)C3=O)cc1,-2.0,0.136,0.4,8.0
C[C@H]1CN([C@@H](C)CO)C(=O)Cc2cc(NC(=O)C3CC3)ccc2O[C@H]1CN(C)S(=O)(=O)c1cccs1,7.7,0.081,0.1,-24.0
C[C@@H]1CN([C@H](C)CO)C(=O)c2cccc(NC(=O)NC3CCCCC3)c2O[C@@H]1CN(C)S(=O)(=O)c1ccc(Cl)cc1,-0.8,-0.105,-2.5,23.2
CCSC1=C(C#N)C(=O)NCS1,-7.6,-0.00877,0.2,-12.3
COc1ccc(NC(=O)Nc2cccc3c2O[C@H](CN(C)Cc2ccc4c(c2)OCO4)[C@H](C)CN([C@@H](C)CO)C3=O)cc1,-12.6,0.0312,-0.3,5.6
Cn1c2ccccc2c2c3c(c4c5ccccc5n(CCC#N)c4c21)CNC3=O,12.4,0.162,-12.7,-100.9
C/C=C(/C)C(=O)O[C@H]1CC(C)(C)C[C@H]2C3=CCC4[C@@]5(C)CC[C@H](O[C@@H]6O[C@H](C(=O)O)[C@@H](O[C@@H]7O[C@H](CO)[C@H](O)[C@H](O)[C@H]7O[C@@H]7O[C@H](CO)[C@@H](O)[C@H](O)[C@H]7O)[C@H](O)[C@H]6O[C@@H]6O[C@@H](C)[C@H](O)[C@@H](O)[C@H]6O)C(C)(C)C5CC[C@@]4(C)[C@]3(C)[C@@H](OC(C)=O)[C@@H](O)[C@@]12COC(C)=O (some centres undefined),50.5,-0.219,-14.9,97.7*
O=C1N[C@H](C(=O)O)C1Cc1ccccc1 (some centres undefined),9.3,-0.354,1.3,9.3
C[C@H]1CN([C@@H](C)CO)C(=O)Cc2cc(NS(=O)(=O)c3ccc(Cl)cc3)ccc2O[C@H]1CN(C)Cc1ccc(Cl)c(Cl)c1,4.6,0.368,1.5,40.9
CC(C)NC(=O)Nc1cccc2c1O[C@H](CN(C)S(=O)(=O)c1ccccc1)[C@H](C)CN([C@@H](C)CO)C2=O,4.8,0.0974,0.2,0.9
COc1ccc(S(=O)(=O)N(C)CC(=O)Nc2cccc(C(F)(F)F)c2)cc1C,30.3,nt,0.6,nt
Cc1cc(C)n(S(=O)(=O)c2cc(C(=O)O)c(Cl)cc2Cl)n1,-1.0,nt,-0.7,nt
O=C(Nc1ccc(I)cc1C(=O)NCC1CCCO1)c1ccco1 (centres undefined),-22.2,nt,-0.3,nt
